# Bioassay records: PubChem BioAssay, several laboratories
# Rce1 inh = yeast Ras-converting enzyme inhibition; calls only; yeast membranes, quenched prenylated peptide cleavage fluorescence; 0.27% of 290,000 active; Q03530;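 active = fall in fluorescence gain of 50% or more versus controls, with final raw signal at or below 3038400; inconclusive = same 50% fall but final raw signal above 3038400; inactive = fall in fluorescence gain under 50%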;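 note: plate controls were neutral control wells for no effect and wells lacking membranes for full effect; tested at 10 µM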
# Target sequence (Q03530 whole entry, looked up): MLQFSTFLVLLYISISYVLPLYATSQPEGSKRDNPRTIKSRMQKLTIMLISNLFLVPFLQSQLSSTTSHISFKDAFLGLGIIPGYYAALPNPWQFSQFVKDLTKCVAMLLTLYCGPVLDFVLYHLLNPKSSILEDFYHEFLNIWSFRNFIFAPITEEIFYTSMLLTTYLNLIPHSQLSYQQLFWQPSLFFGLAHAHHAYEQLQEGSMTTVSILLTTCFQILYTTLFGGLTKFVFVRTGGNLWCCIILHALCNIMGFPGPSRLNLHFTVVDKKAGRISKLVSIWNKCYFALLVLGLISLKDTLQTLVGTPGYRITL
# MT1-MMP act inh = MT1-MMP (human) activation inhibition; HT1080 RFP-PRO-GFP cells, GFP/RFP ratio fluorescence, overnight; percent of plate control window, DMSO zero; GFP/RFP ratio change, % at 20 µM; 0.061% of 360,000 active; AID 651647;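 active = GFP/RFP ratio change of at least 30% with cell ATP level not reduced by more than half and red fluorescence within 50% of control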; note: strong numbers were not always called active
#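 Assay system – RFP-PRO-GFP reporter HT1080 cells · Compound dosing – single dose of 20 µM compound, 1% DMSO final · Incubation – overnight compound exposure at 37 °C · Measure – GFP/RFP fluorescence ratio · Benchmarks – DMSO wells and RFP-L50D-GFP cells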
# PABP FP inh = PABP-poly(A) binding inhibition; P11940; PABP-poly(A) RNA binding, fluorescence polarization; 1% of 290,000 active; inhibition, % at 35 µM;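 active = 50% or more with normal probe brightness, or confirmed in later tests; inconclusive = above 50% with abnormal brightness, or retests that disagree; inactive = below 50% or failed in later tests; about a fifth of its hits are not listed in these tables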;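 note: calls also rest on retests at 20 µM and on dose response follow-up; controls were probe without protein and protein plus probe with vehicle; some compounds called inactive have numbers as strong as hits; many hits fall short of the cut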
# Yeast UUG start = yeast start codon fidelity modulation | S. cerevisiae UUG-firefly luciferase reporter, luminescence/redox ratio | activity score, % at 18.7 µM | 0.13% of 350,000 active;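 active = replicate mean at a twofold rise or more, about +100% in these data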;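 note: firefly luciferase made from a UUG start codon reports start codon fidelity; reporter light over untreated wells divided by growth signal over untreated wells; some hits fall short of that in this replicate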
# CSC inhib = blocks cancer stem cells; cancer stem cell-like cells viability, luminescence; inhibition, % at 7.5 µM; 1.1% of 300,000 active; AID 2717;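 active = mean at 75% or more and at least half the replicates too; inconclusive = mean and replicates disagree; tested in HMLE shEcad cells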;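 note: 0% = median of negative and 100% = median of positive control wells; the first replicate is given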
# Env fusion inh = inhibitors of HIV Env-mediated cell fusion | HeLa-JRFL Env/CEM21 cell fusion, luciferase | inhibition, % at 12.3 µM | 1.1% of 360,000 active;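 active = mean replicate inhibition score of at least 50 and every replicate individually at or above 50; inconclusive = only one of the two criteria met; inactive = mean below 50 and not all replicates reaching 50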;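 note: 0% = plate neutral controls and 100% = maraviroc near 300 nM; one replicate is shown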
# eIF4H inh = inhibitors of RNA binding by human eIF4H; AID 2012; inhibition, % at 35 µM; 0.94% of 290,000 active; eIF4H fluorescence polarization binding assay;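 active = 50% or more with normal probe brightness, or confirmed in later tests; inconclusive = above 50% with abnormal brightness, or retests that disagree; inactive = below 50% or failed in later tests; about a fifth of its hits are not listed in these tables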;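 note: calls also rest on retests at 20 µM and on dose response follow-up; 0% = protein and probe with vehicle and 100% = probe without protein; strong numbers were not always called active; many hits fall short of the cut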
# eIF4H inh retest = further read-out of eIF4H inh, marked with its call; inhibition, %; compound at 20 µM; confirmation average;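 mean of two retest wells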
# PABP FP inh retest = further read-out of PABP FP inh, marked with its call; inhibition, %; compound at 20 µM; confirmation repeats;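 mean of two retest wells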
# MT1-MMP act inh RFP = also measured in MT1-MMP act inh; calls as there; RFP signal change, %; measured here: RFP expression control read;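 0 = vehicle wells; hits needed this value within 50% of zero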
# Active calls of the source: *; i = inactive; u = inconclusive; x = not tested or not shown.
# The opening 4 entries as a preview:
SMILES,Rce1 inh,MT1-MMP act inh,MT1-MMP act inh RFP,PABP FP inh,Yeast UUG start,CSC inhib,Env fusion inh,eIF4H inh,others
O=C(NCc1ccncc1)C1CCN(S(=O)(=O)c2ccccc2)CC1,i,-2,0,x,x,1,x,x,
COc1cccc(C#Cc2c(C=O)n(C)c3ccccc23)c1,x,11,5,x,-13,-28,28,x,
Cc1ccc(NC(=O)c2cccc(OCc3c(C)noc3C)c2)c(C)c1,i,7,-3,-5,-3,13,-114,-6,
CCOC(=O)C(C)Sc1nnc(NC(=O)c2ccc3c(c2)OCO3)s1 (configuration not stated),i,4,-1,16,x,4,-4,-3,

# The whole of this part (from the top)
SMILES,Rce1 inh,MT1-MMP act inh,MT1-MMP act inh RFP,PABP FP inh,Yeast UUG start,CSC inhib,Env fusion inh,eIF4H inh,others
O=C(NCc1ccncc1)C1CCN(S(=O)(=O)c2ccccc2)CC1,i,-2,0,x,x,1,x,x,
COc1cccc(C#Cc2c(C=O)n(C)c3ccccc23)c1,x,11,5,x,-13,-28,28,x,
Cc1ccc(NC(=O)c2cccc(OCc3c(C)noc3C)c2)c(C)c1,i,7,-3,-5,-3,13,-114,-6,
CCOC(=O)C(C)Sc1nnc(NC(=O)c2ccc3c(c2)OCO3)s1 (configuration not stated),i,4,-1,16,x,4,-4,-3,
C/C(=N/NC(=O)CNC(=O)c1ccccn1)c1cccc([N+](=O)[O-])c1,i,4,3,25,-18,-4,-17,-5,
Cc1sc(NC(=O)CN2CCOCC2)nc1-c1ccc2c(c1)CCN2S(=O)(=O)c1ccccc1,i,0,-21,-4,3,-5,x,-16,
Cc1ccc(S(=O)(=O)CC(c2ccccc2)N2CCOCC2)cc1 (configuration not stated),i,-4,1,-9,-17,12,x,-2,
CCCCCCCCCCC(=O)NNC(=O)c1c(O)c2ccccc2n(CC)c1=O,i,x,x,2,x,-12,x,7,
COc1ccc(S(=O)(=O)Nc2cc(Sc3ncn[nH]3)c(O)cc2C)cc1,x,1,-1,x,3,-8,-13,x,
COc1ccc(Cl)cc1Nc1nc(-c2sc(NC(=O)c3ccco3)nc2C)cs1,i,-1,2,3,-12,-24,-8,-18,
CCOC(=O)N1CCN(C(=O)CNC(=O)c2ccc(Cl)cc2)CC1,i,0,0,2,4,4,-40,-8,
O=C(c1ccccc1)c1nccn1-c1ccc(Cl)nn1,x,1,3,5,-15,-16,0,-9,
Cc1ccccc1NC(=S)N1CCN(C(=O)c2ccco2)CC1,i,6,3,7,x,-2,11,-9,
Cc1cc(NC(=O)CSc2nc3c([nH]c4ccccc43)c(=O)n2-c2ccccc2F)no1,i,-6,-8,-6,3,7,14,5,
O=C(COc1ccccc1)Nc1nnc(C23CC4CC(CC(C4)C2)C3)s1,i,2,-1,0,-17,-3,-39,8,
CC(=O)N1c2ccccc2C(C)(c2ccccc2)CC1(C)C (configuration not stated),i,-10,-9,0,-10,4,x,-9,
Cc1ccc(NC(=O)N(Cc2cc3cc(C)cc(C)c3[nH]c2=O)CC2COCCO2)cc1 (configuration not stated),i,-17,-12,-8,-5,-8,-342,-2,
O=C(NCC(c1ccco1)N1CCN(c2ccc(F)cc2)CC1)C(=O)NC1CCCCC1 (configuration not stated),i,3,1,x,6,1,0,x,
O=C(Nc1ccccc1N1CCCC1)c1ccc2ccccc2c1,i,-4,-3,4,-13,-4,8,-5,
CN(C)S(=O)(=O)c1ccc(C(=O)NCC(c2cccs2)N2CCOCC2)cc1 (configuration not stated),i,-3,-2,x,-5,2,11,x,
O=C(OCc1ccc(F)cc1)c1ccc2c(c1)-c1ccccc1C2=O,i,4,3,10,x,-3,x,-5,
CC12CCC(C(=O)N(c3cccc(Cl)c3)C1=O)C2(C)C (configuration not stated),i,0,3,3,-20,-11,5,7,
COc1cccc(NC(=O)CN2C(=O)NC(C)(C3CC3)C2=O)c1 (configuration not stated),x,-1,-2,x,-7,-8,-1,x,
CC(C)(C)OC(=O)Cn1c(=O)cnc2ccccc21,i,-3,0,-7,-11,-17,x,-3,
CCCn1c(N)c(C(=O)NS(=O)(=O)c2ccc(C)cc2)c(=O)n(C)c1=O,i,2,-4,2,x,1,38,-1,
COc1cccc(CN2CCN(Cc3cc(OC)c(OC)c(OC)c3)CC2)c1OC,i,1,-3,0,-2,x,3,2,
COc1ccccc1N(Cc1ccccc1)S(=O)(=O)c1cc(C(=O)O)ccc1Cl,i,3,4,-4,-4,63,6,-9,
O=S(=O)(Nc1ccccc1C(F)(F)F)c1ccc(-c2ccccn2)s1,i,-2,1,11,-11,14,4,7,
CCOc1ccc(NC(=O)Nc2cc(-c3ccccc3)sc2C(=O)OC)cc1,i,-2,-5,-4,-18,u,-15,1,
CCc1ccc(N2C(=O)c3sc4nnc(C)c(=O)n4c3C2=O)cc1,i,4,5,-5,-8,-6,8,2,
Cc1ccsc1/C=N/n1cnnc1,i,2,1,-5,-12,-13,-24,5,
CCN(c1ccccc1)S(=O)(=O)c1ccc(Cl)c(NC(=O)CSc2nncn2C)c1,i,2,1,16,x,x,-50,-4,
CC[N+]1(CC(O)COC2CC(C)CC(C)(C)C2)CCOCC1 (configuration not stated),i,3,3,62*,4,22,-105,-2,eIF4H inh retest=-3;PABP FP inh retest=86*
Cc1onc(-c2ccccc2Cl)c1C(=O)NCc1nnnn1-c1ccc(F)cc1,i,-3,-2,x,11,4,4,x,
CCN(CC(=O)Nc1c(F)cccc1F)C(=O)C1(c2ccccc2)CC1,i,-3,-2,-7,-39,-8,x,-3,
O=c1[nH]c2ccccc2nc1Cc1ccc([N+](=O)[O-])cc1,x,5,6,-4,-7,-11,1,-9,
CCc1ccc(NC(=O)CSc2nc3ccccc3c(=O)n2CCN2CCOCC2)cc1,i,4,2,0,4,-16,-104,-7,
CC(=O)Oc1ccc(C)cc1-n1nc2ccccc2n1,i,0,0,-11,-13,5,-88,0,
Nc1ccccc1Nc1ccncc1[N+](=O)[O-],i,2,4,-6,10,-6,-48,-10,
O=C(Nc1cc(=O)[nH]c2nc(-c3ccccc3)nn12)c1ccc(Cl)cc1,i,x,x,3,x,2,3,-3,
CSC[C@H]1CN(CCc2ccccc2)C(=O)[C@@H]1CC(=O)Nc1ccc(Br)cc1,x,3,-2,x,-5,x,7,x,
CCn1c(COc2ccc3c(c2)CCCC3)nnc1SCC(=O)Nc1ccc(C(=O)OC)cc1,i,-4,-2,4,x,-5,x,-5,
CCOc1cc(/C=N/n2cnnc2)ccc1OCC(=O)Nc1ccccc1OC,i,-1,3,-6,-5,-3,x,-10,
CC1CCC(NC(=O)C2CCC(CNc3c(N4CCCCC4)c(=O)c3=O)CC2)CC1 (configuration not stated),i,1,3,15,4,-4,4,-10,
CC1CCCN(CCCCOc2cccc(Br)c2)C1 (configuration not stated),i,0,-2,13,x,-23,10,9,
CCOc1ccccc1NC(=O)c1cccnc1,i,0,2,x,x,6,x,x,
O=C(NC1CCCCC1)NC1CC2CCC(C1)N2C(=O)NC1CCCCC1 (configuration not stated),i,x,x,7,x,x,x,0,
COc1ccc(CCC(=O)N2CCCSC2=Nc2ccc(C(C)=O)cc2)cc1,i,-9,1,5,9,-3,x,5,
CCCCN1CC(=O)N2[C@H]3c4cc(C)ccc4OC[C@@H]3[C@H](c3ccccc3)[C@]2(C)C1=O,x,-14,-1,x,-19,-7,x,x,
Cc1cccc(NS(=O)(=O)c2cc(OCC(N)=O)c(C)cc2Cl)c1,i,-3,-7,0,-6,13,-8,-10,
CCC(c1nnnn1Cc1ccc(OC)cc1)N1CCN(C(=O)c2ccco2)CC1 (configuration not stated),i,-7,1,6,-2,-11,5,-14,
CC1Nc2ncnc(N3CCc4ccccc4C3)c2N(Cc2ccc(Cl)cc2)C1=O (configuration not stated),i,-10,9,x,-8,15,x,x,
COc1ccc(C2=NOC(C(=O)NCCN3CCOCC3)C2)cc1 (configuration not stated),i,12,10,-2,-3,-7,-7,5,
CN1CCN(c2ccc(NC(=O)COc3ccccc3[N+](=O)[O-])cc2)CC1,i,1,6,-4,x,-8,9,-6,
O=c1c2c3nc4ccccc4nc3n(/N=C/c3ccco3)c2ncn1CCC1=CCCCC1,i,2,0,18,3,27,x,65*,eIF4H inh retest=88*;PABP FP inh retest=47
COc1cccc(OC)c1NC(=O)Cn1nc(C)c2ccccc2c1=O,i,-2,-1,4,6,-6,3,2,
C(=N/Nc1nccs1)/c1cccnc1,i,-1,1,16,x,0,-51,10,
C[C@]12c3[nH]c4ccc(Cl)cc4c3CCN1C(=O)[C@@H](CC(=O)NCCC1=CCCCC1)C[C@@H]2C(=O)N1CCOCC1,x,-2,-8,x,-5,x,-54,x,
CCN(Cc1ccncc1)C(=O)C1CCN(S(=O)(=O)c2cccs2)CC1,i,-1,-1,-2,-9,-14,8,0,
CCc1cc(=O)oc2c3c(cc(OCC(=O)N[C@H](C(=O)O)[C@H](C)CC)c12)OC(C)(C)CC3,i,4,2,4,-3,1,0,-12,

# More entries follow.
SMILES,Rce1 inh,MT1-MMP act inh,MT1-MMP act inh RFP,PABP FP inh,Yeast UUG start,CSC inhib,Env fusion inh,eIF4H inh,others
C[C@H](NC(=O)c1nc[nH]c1C(=O)N1CCN(c2ccccc2)CC1)C(=O)OCc1ccccc1,i,3,5,5,3,3,-17,-1,
COC(=O)c1cc(C#N)c(OC(C)C)nc1C,i,-3,-1,-1,x,4,-90,-2,
C[C@@H]1CC[C@]2(O[C@@H](CCO)C[C@@H](O)[C@@H]2O)O1,i,-2,3,1,-20,4,20,-12,
Cc1ccc(C(=O)O/N=C(\N)Cc2cccs2)c(Cl)c1,i,-5,-5,4,-40,x,x,-8,
CCc1nc(N2CCN(C(C)=O)CC2)c(C#N)c2c1COC(C)(C)C2,i,1,-2,-9,x,-15,4,-2,
O=C(Nc1cc(C(F)(F)F)ccc1N1CCOCC1)c1cccnc1,i,0,0,16,-7,x,-10,6,
COc1ccccc1C(=O)COC(=O)CCN=C1NS(=O)(=O)c2ccccc21,i,0,4,x,7,28,-4,x,
O=C(NNC(=O)c1ccc(F)cc1F)c1ccc2c(c1)OCO2,i,-2,2,4,x,38,-17,8,
COc1ccc(N2CC(C)Cn3c2nc2c3c(=O)n(Cc3ccc(C)cc3)c(=O)n2C)c(OC)c1 (configuration not stated),i,-1,-10,-6,-12,4,12,-5,
Cc1cccc(C)c1NC(=O)CSCC(=O)O,x,3,0,2,-13,x,x,-3,
CCCCOC(=O)C1CCCC(C)N1 (configuration not stated),i,2,-1,4,-33,-7,x,-2,
COCC(C)Nc1nc(C)c(C(C)=O)s1 (configuration not stated),i,-1,1,0,x,6,11,1,
COc1ccccc1Nc1nc2c(C)cccc2cc1C#N,i,-12,2,-11,-2,-7,-83,7,
O=C(Nc1nnc([C@@H]2C[C@H](O)[C@@H](CO)O2)s1)c1cccc(C(F)(F)F)c1,x,2,4,x,-8,x,-4,x,
COc1cc(/C=C/C(=O)OCC(=O)NC(=O)NCc2ccccc2)ccc1OCC#N,i,2,2,-5,x,-7,18,-1,
Cc1cc(OC(=O)c2cc(C(F)(F)F)cc(C(F)(F)F)c2)c([N+](=O)[O-])c(=O)[nH]1,i,0,5,-6,-19,1,7,4,
COc1ccc(F)cc1S(=O)(=O)n1nc(C)cc1C,x,4,5,15,-18,-19,8,-1,
CC(C)[C@H]1C=C(C(=O)O)O[C@@H](OCCCCO)C1,i,6,2,9,-15,16,7,2,
